From PubChem
Bfl-1 A1 inh = caspase 3/7 activation in MEF A1-2A-BIM cells, primary screen, A1 inhibitor project, cell-based, luminescence, HTS | caspase activation, % (no concentration beside the values) | 0.066% of 330,000 active | Caspase-Glo 3/7 luminescence, 3 h; percent of clofoctol response, vehicle zero | AID 2462, 2010;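 active = over half of replicate activation scores above 10%, or exactly half above 10 with the replicate mean above 10; inconclusive = replicate mean below 10 yet half the replicates above 10; inactive = over half of replicates below 10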;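 also: wells of about 30 µL received 50 nL stock; many hits fall short of the cut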
Beta2AR agonist = beta2AR agonists driving receptor internalization, primary screen, cell-based, FAP fluorogen, flow cytometry. Am2.2-beta2AR cells; reference of the scale not given here. response, % (test concentration not listed). AID 504454, 2011. 0.43% of 340,000 active. Beta-2 adrenergic receptor (Homo sapiens), P07550;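 active = response above a set limit, near 3 SD of response in nonfluorescent compounds, cut at about 42% in these data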;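 also: stock transfer was 100 nL into about 11 µL; a reference agonist was the positive control; negative values mostly stem from fluorescent compounds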
UCH37 DUB inh = inhibitors of human UCH37 deubiquitinase, primary screen, biochemical, Ub-AMC cleavage, fluorescence | purified proteasome/UCH37 | inhibition, % (test concentration not listed) | 0.33% of 330,000 active;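 active = mean of two replicates above 20%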;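 also: 0% = compound-free wells with enzyme and 100% = wells lacking proteasome; stock transfer was 100 nL into about 20 µL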
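Assay system: Proteasome-bound UCH37. Buffer or medium: pH 7.4 Tris-HCl (50 mM) with ovalbumin, ATP-MgCl2, DTT. Incubation: 30 min preincubation with enzyme, 25 min cleavage at room temperature. Measured by: fluorescence, ex 355 nm, em 460 nm. Read-out basis: percent inhibition. Control set: wells without proteasome as full block, compound-free enzyme plus substrate as uninhibited.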
Vif TR-FRET = inhibitors of Vif binding to APOBEC3G peptide, primary screen, biochemical, TR-FRET, GST-Vif 1-94, biotin-A3G peptide, dose response retest (AID 1117319). TR-FRET GST-Vif / biotin-A3G peptide binding; higher % means a stronger effect; test concentration not given here; strong numbers were not always called active. inhibition, %, or IC50 in µM where a hit was titrated. 0.57% of 260,000 active;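 active = above the screen mean plus three standard deviations and confirmed in dose response; inconclusive = results disagree or hit not tested in dose response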;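 also: Vif residues 1-94 fused to GST binding biotinylated APOBEC3G peptide 110-148; 0% = full assay without inhibitor and 100% = GST in place of GST-Vif; retest series ran down from 100 µM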
HNF4A DNA FP = change in binding of human HNF4A to DNA, primary screen, biochemical, fluorescence polarization, FITC-DNA; Hepatocyte nuclear factor 4-alpha (Homo sapiens), P41235; 1 h; activity change, % at 10 µM; 0.3% of 360,000 active; AID 1224865, 2016; in the data active = activity change above about 30%, passing the limit was not always enough;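 also: controls were the assay level and a saturating level of protein; the project sought stronger binding though the title names inhibitors; some compounds called inactive have numbers as strong as hits; positive values seem to mean higher polarization but the record does not say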
E coli growth = E. coli growth inhibition, primary screen, OD600; 0.21% of 330,000 active; Escherichia coli growth, 23 h; stronger effect = lower value; OD600 absorbance (concentration not given with the values); AID 1053175, 2014;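 active = OD600 absorbance below the run mean of sample wells minus 3.6 SD, in any replicate, cut at about 0.56 in these data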;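 also: stock transfer was 300 nL into about 60 µL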
LANA-H2A inh = blockers of LANA interaction with H2A/H2B – biochemical, FP readout, HTS, primary screen; cell-free LANA-H2A/H2B peptide, fluorescence polarization; inhibition, % (test concentration not listed); 0.6% of 320,000 active; AID 2629, 2010; in the data active = inhibition mostly above about 10%, no sharp cut-off; inactive = mostly below about 6.7%;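 also: stock transfer was 7.5 nL into about 10 µL; 0% = median of vehicle wells and 100% = median of positive control wells; one replicate is shown; the record names a cut of 25% in any replicate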
Target sequence (Q9QR71 whole entry, looked up): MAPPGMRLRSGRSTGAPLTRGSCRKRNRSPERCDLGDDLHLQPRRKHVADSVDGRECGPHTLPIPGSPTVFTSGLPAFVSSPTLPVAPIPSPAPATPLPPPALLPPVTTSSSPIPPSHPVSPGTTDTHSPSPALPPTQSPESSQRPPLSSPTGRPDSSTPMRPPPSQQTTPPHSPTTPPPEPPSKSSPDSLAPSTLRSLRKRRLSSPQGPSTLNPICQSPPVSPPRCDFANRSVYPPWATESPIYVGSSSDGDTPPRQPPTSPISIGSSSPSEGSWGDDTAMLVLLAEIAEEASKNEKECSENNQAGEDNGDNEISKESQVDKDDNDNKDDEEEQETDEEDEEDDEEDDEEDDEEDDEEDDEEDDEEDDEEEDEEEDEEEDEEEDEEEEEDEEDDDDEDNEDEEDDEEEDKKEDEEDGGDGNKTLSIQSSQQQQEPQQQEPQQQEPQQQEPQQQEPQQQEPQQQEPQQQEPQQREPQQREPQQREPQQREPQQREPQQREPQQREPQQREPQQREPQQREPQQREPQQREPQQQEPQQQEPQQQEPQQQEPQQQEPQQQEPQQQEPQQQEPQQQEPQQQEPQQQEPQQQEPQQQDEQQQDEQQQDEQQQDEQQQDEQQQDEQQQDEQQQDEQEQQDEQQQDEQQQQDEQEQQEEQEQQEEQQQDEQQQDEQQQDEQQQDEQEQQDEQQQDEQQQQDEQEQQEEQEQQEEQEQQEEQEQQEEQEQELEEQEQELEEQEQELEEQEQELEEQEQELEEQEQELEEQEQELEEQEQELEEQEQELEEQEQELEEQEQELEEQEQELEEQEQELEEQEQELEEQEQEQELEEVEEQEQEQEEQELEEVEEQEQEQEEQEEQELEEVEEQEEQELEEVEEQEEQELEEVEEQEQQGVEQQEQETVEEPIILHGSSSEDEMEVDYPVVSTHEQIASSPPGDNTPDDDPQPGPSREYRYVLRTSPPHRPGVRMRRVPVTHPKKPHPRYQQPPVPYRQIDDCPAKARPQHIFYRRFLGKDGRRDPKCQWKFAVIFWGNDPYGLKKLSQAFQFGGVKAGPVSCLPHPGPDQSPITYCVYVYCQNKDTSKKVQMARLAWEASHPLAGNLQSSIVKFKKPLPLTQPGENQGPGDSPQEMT
* marks the source's active call; other numbers are inactive results; ? = inconclusive; . = no result given; & = joins results of further samples. Hits appear at their usual frequency. Share with any hit: about 2.1%.

item | Molecule | Bfl-1 A1 inh | Beta2AR agonist | UCH37 DUB inh | Vif TR-FRET | HNF4A DNA FP | E coli growth | LANA-H2A inh
1 | COc1ccc(NC(=O)C2CCCN2C(=O)Oc2ccccc2)cc1 (stereo not drawn) | 0.2 | 5.3 | 2.6 | 9.0% | -6.0 | 0.727 | -2.6
2 | O=C(Nc1ccc(C(F)(F)F)cc1)C1CCN(c2cnccn2)CC1 | 0.2 | -4.7 | -47.0 | . | 2.2 | 0.575 | 0.6
3 | CCc1ccc(-c2cc(C(=O)N/N=C/c3ccco3)[nH]n2)cc1 | -1.5 | -0.8 | . | -1.8% | 4.2 | . | -2.4
4 | Cc1nc2nc[nH]n2c(=O)c1NC(=O)CC12CC3CC(CC(C3)C1)C2 | 0.1&-0.4 | -0.2&-1.8 | 4.0&1.8 | 25.8%&0.6% | -1.8&3.2 | 0.657&0.717 | -2.2
5 | COc1ccc(-c2csc(N3CCN(c4cc(C)nc5ccccc45)CC3)n2)cc1OC | 1.4 | 35.3 | -2.3 | . | 1.7 | 0.681 | -4.3
6 | CCOC(=O)[C@@H]1[C@H]2COc3ccccc3[C@H]2N2C(=O)N(c3ccc(C(F)(F)F)cc3)C(=O)[C@]12C | -0.2 | -1.0 | 0.3 | . | -0.9 | . | -4.1
7 | CCCN(CCC)CCCNC(=O)C1CCC(CNS(=O)(=O)c2cccc3nsnc23)CC1 (stereo not drawn) | 1.1 | 3.2 | . | . | 1.9 | . | 0.2
8 | O=C(Cn1c(CO)nc2ccccc21)NCc1ccc2c(c1)OCO2 | 0.7 | 8.1 | 3.4 | ? | 4.1 | 0.665 | -0.5
9 | COc1ccc(C(=O)N/N=C/c2ccc(OC)c(CN3CCc4cc(OC)c(OC)cc4C3C)c2)cc1 (stereo not drawn) | -0.9 | 6.2 | . | 3.4% | 5.0 | . | 2.1
10 | CCOC(=O)c1c(C)[nH]c(C)c1C(=O)COC(=O)CNC(=O)C1CCCCC1 | 0.6 | 5.1 | 1.3 | 32.9% | -0.6 | 0.699 | 0.1
11 | O=C(O)c1nc(N2CCOCC2)nc(N2CCOCC2)n1 | -0.4 | 1.8 | 2.2 | 5.6% | 0.6 | 0.679 | 4.3
12 | COc1cc(CN2CCN(Cc3ccccc3C(F)(F)F)CC2)cc(OC)c1OC | 0.3 | -7.6 | 0.0 | 4.9% | 2.8 | 0.691 | 7.6
13 | O=S(=O)(NCc1ccco1)c1ccc2c(c1)Cc1ccccc1-2 | 0.4 | 4.0 | -8.2 | 14.2% | 3.0 | 0.712 | 3.2
14 | CCc1ccc(C(=O)CN2C(=O)NC3(CCOc4ccccc43)C2=O)s1 (stereo not drawn) | 0.5 | -2.6 | 3.6 | -3.6% | 0.0 | 0.638 | 1.5
15 | O=C(O)CCCC(=O)N1CCN(c2nc(-c3ccccc3Cl)c3cc(Br)ccc3n2)CC1 | -0.6 | 9.8 | -35.3 | -48.5% | 1.9 | 0.63 | -1.7
16 | COC(=O)c1cc(=O)n2c(sc3ccccc32)c1C#N | 0.5 | -5.8 | -380.1 | 0.5% | 2.7 | 0.702 | -0.8
17 | Oc1ccc(C[C@H]2CNCCN2CC2CCCCC2)cc1 | 0.2 | 1.2 | -5.0 | . | 4.3 | . | -5.3
18 | COc1cc(CC(=O)NCC2CCCCC2)cc(OC)c1OC | 1.2 | -7.2 | 0.7 | -2.6% | -2.9 | 0.657 | 2.1
19 | O=C(Nc1ccc(N2CCOCC2)c(S(=O)(=O)Nc2cc(Cl)ccc2Cl)c1)c1cccnc1 | 0.5 | -2.8 | 1.4 | 10.2% | -3.1 | 0.683 | -1.6
20 | CCCCn1c(N)c(N(CC)C(=O)c2cc(Br)ccc2Cl)c(=O)[nH]c1=O | 0.6 | 0.8 | -1.3 | 15.9% | -4.2 | 0.67 | -4.7
21 | Cc1cc2nc(-c3ccc(SCc4ccccn4)nc3)[nH]c2cc1C | -0.1 | 32.2 | -74.9 | -11.8% | -2.3 | 0.705 | 1.2
22 | CC1CCCN(CC(O)COCc2ccc3c(c2)OCO3)C1 (stereo not drawn) | 1.3 | -0.4 | 2.6 | -10.8% | 0.5 | 0.672 | 0.0
23 | O=C(Nc1ccc(N2CCN(C(=O)c3cccs3)CC2)cc1)c1ccccc1Cl | 1.4 | 4.4 | 4.8 | 5.5% | 1.1 | 0.684 | -4.2
24 | CC1Cc2ccccc2N1C(=O)Cn1cnc2c1c(=O)n(C)c(=O)n2C (stereo not drawn) | -0.7 | 1.9 | -0.4 | . | 0.1 | 0.679 | -3.5
25 | COc1cc(N2CCCC2)c(OC)cc1/C=C(/C#N)c1cccc(F)c1 | -0.7 | -527.7 | . | 4.7% | 89.1 | . | 1.1
26 | CCOc1cccc(-c2nnc3sc(COc4ccc(Cl)cc4)nn23)c1 | -1.7 | -6.4 | 3.5 | 0.1% | 0.1 | 0.763 | -0.5
27 | C/C(CC(=O)NCCCN1CCOCC1)=N\NC(=O)COc1cccc2ccccc12 | 0.2 | -5.9 | . | . | -0.9 | . | .
28 | Cc1c(-c2cccc(Cl)c2)nc2ccccc2c1C(=O)OC/C(O)=C(\C#N)c1nc2ccccc2[nH]1 | 1.8 | 22.4 | . | 18.2% | 25.2 | . | 3.4
29 | COc1ccccc1CNC(=O)CCNS(=O)(=O)c1ccc2[nH]c(=O)oc2c1 | -0.7 | 7.9 | 0.8 | 11.2% | -3.8 | 0.709 | 4.6
30 | CO/N=C/NC(=O)C1=NOC(CNc2ncc(C(F)(F)F)cc2Cl)C1 (stereo not drawn) | 0.5 | -2.1 | . | 27.0% | -2.9 | . | 0.0
31 | COc1ccccc1/C=C/C=N/NC(=O)c1ccc2nc[nH]c2c1 | 0.4 | . | . | 23.1% | . | . | 3.6
32 | O=C(c1ccc2c(c1)OCO2)C1CCCN(Cc2ccc3nsnc3c2)C1 (stereo not drawn) | -0.1 | 17.5 | -0.2 | . | -2.7 | 0.639 | 0.5
33 | CC1=CC(c2ccccc2)n2nc(N3C(=O)c4ccccc4C3=O)nc2N1 (stereo not drawn) | -0.7 | -6.0 | -3.6 | 31.9% | -2.0 | 0.722 | 0.1
34 | O=C(CN1C(=O)NC(Cc2ccccc2)C1=O)Nc1ccccc1OC(F)F (stereo not drawn) | 0.3 | -3.7 | -0.5 | -0.3% | -0.4 | 0.619 | 0.4
35 | COc1ccc(CCNS(=O)(=O)c2ccc([N+](=O)[O-])cc2)cc1OC | -0.1 | -5.1 | 1.9 | . | 1.9 | 0.617 | 1.7
36 | Cc1ccc(C(=O)NNC(=O)c2cc(OCC(F)(F)F)ccc2OCC(F)(F)F)cc1 | 0.5 | -1.2 | 0.2 | 0.5% | 1.0 | 0.687 | 5.6
37 | COc1cc(C(=O)NNC2=CC(=O)CC(C)(C)C2)cc(OC)c1OC | -0.4 | -3.8 | 5.6 | . | -2.8 | 0.701 | -0.1
38 | O=C(NCCc1ccccn1)c1c(-c2ccccc2)sc2ccccc12 | 0.4 | 0.0 | 1.0 | . | -2.3 | 0.694 | 3.3
39 | Cc1ccc(-c2cc(C(=O)OCC(=O)N(C)C3CCS(=O)(=O)C3)c3ccccc3n2)o1 (stereo not drawn) | 1.7 | -5.7 | -23.5 | . | -3.0 | 0.662 | 5.0
40 | Cc1cccc(N(CC(=O)NCCc2ccccc2)C(=O)c2csnn2)c1 | 0.3 | 0.6 | 0.5 | . | -0.2 | 0.706 | -1.3
41 | O=C(c1cc(COc2ccc(F)cc2Cl)on1)N(CCO)Cc1cccs1 | -0.1 | 0.0 | -2.2 | . | -3.2 | 0.637 | 1.1
42 | O=C(CCCN1C(=O)c2ccccc2C1=O)N1CCN(c2ccccn2)CC1 | -0.5 | -9.1 | 3.0 | -6.3% | 3.3 | 0.661 | 1.7
43 | CSc1nc2c(cnn2-c2ccc(C)c(C)c2)c(=O)[nH]1 | -0.9 | 2.5 | 8.0 | 1.3% | 0.9 | 0.758 | 0.0
44 | O=C1NC(=S)SC1=Cc1ccc(Cl)cc1 | . | 12.1 | 6.1 | -12.0% | 2.1 | 0.647 | .
45 | CC(OC(=O)c1cccc(-n2cnnn2)c1)C(=O)NC1(C#N)CCCCC1 (stereo not drawn) | 0.9 | 2.0 | 0.1 | -4.3% | 2.3 | 0.674 | 2.0
46 | CCOC(=O)C[C@H]1c2ccccc2S(=O)(=O)N1c1ccccc1 | -0.4 | -2.7 | 5.1 | . | 3.1 | . | 3.8
47 | Cc1ccc(C(=O)Oc2cc(C)n(C)c(=O)c2)cc1 | 0.4 | -1.9 | 1.5 | -3.4% | 0.6 | 0.776 | -0.6
48 | CC(C)(C)C(=O)Nc1ccccc1C(=O)Nc1ccccn1 | 1.5 | -13.9 | -2.3 | 2.8% | -0.6 | 0.673 | 1.8
49 | N#CCCn1[nH]c(-c2ccccc2)cc1=O | -0.2 | 6.9 | 0.5 | -2.2% | 4.0 | 0.675 | -0.1
50 | COc1ccc(-c2csc(NC(=O)CSc3n[nH]c(C)n3)n2)cc1 | 0.1 | 11.5 | 3.6 | 9.8% | 5.7 | 0.648 | -1.5

(continued)
item | Molecule | Bfl-1 A1 inh | Beta2AR agonist | UCH37 DUB inh | Vif TR-FRET | HNF4A DNA FP | E coli growth | LANA-H2A inh
51 | COc1ccc2c(CC(=O)Nc3nccs3)coc2c1 | -2.3 | -13.4 | 0.7 | 4.3% | 0.7 | 0.703 | 0.9
52 | Cc1cc(C)cc(NC(=O)Nc2cccnc2)c1 | -2.3 | -3.0 | 3.7 | 3.1% | -4.8 | 0.648 | -1.9
53 | CCOC(=O)CSc1nc(C(C)C)nc2sc(C)c(C)c12 | -0.7 | -11.0 | 0.4 | ? | 1.4 | 0.664 | 4.5
54 | Cc1nonc1CC(=O)N1CCCC(C(=O)c2ccc(Cl)cc2)C1 (stereo not drawn) | 0.9 | -6.3 | 3.8 | -7.1% | 0.0 | 0.678 | 4.9
55 | CC(CCC(C)OC(=O)c1ccccc1C(=O)O)OC(=O)c1ccccc1C(=O)O (stereo not drawn) | -0.2 | 0.5 | 4.4 | -4.0% | -1.9 | 0.682 | -1.7
56 | COc1cc(NC(=O)c2ccc3c(c2)OCCO3)ccc1NC(=O)c1cccs1 | -0.5 | -12.8 | 3.6 | 23.0% | 0.0 | 0.708 | 4.7
57 | Cc1ccc(C)c(S(=O)(=O)N2CCN(C(=O)CCC(=O)NCc3ccc(Cl)cc3)CC2)c1 | 0.7 | 5.1 | 0.8 | -2.2% | 3.4 | 0.657 | -3.6
58 | CC1CC1C(=O)N(CCC1=CCCCC1)c1c(N)n(Cc2ccccc2)c(=O)[nH]c1=O (stereo not drawn) | 0.0 | -3.2 | 2.1 | -0.4% | 1.5 | 0.671 | 1.2
59 | O=C(CNC(=O)c1ccc2c(c1)OCO2)NCc1cccs1 | -1.0 | 2.1 | -2.0 | 1.4% | 4.0 | 0.691 | 0.9
60 | COc1ccccc1CNC(=O)C(Cc1ccccc1)NC(=O)c1ccccc1 (stereo not drawn) | 1.8 | -2.7 | -2.7 | . | 1.7 | 0.672 | -0.6
61 | O=S(=O)(/C=C/c1ccccc1)N1CCN(Cc2ccc3c(c2)OCO3)CC1 | 0.6 | -12.5 | 1.4 | 8.9% | 2.1 | 0.68 | 11.5
62 | NS(=O)(=O)c1cccc(NC(=O)c2cc3ccccc3o2)c1 | -2.8 | -2.1 | -20.3 | -37.1% | 1.9 | 0.663 | -2.3
63 | COCCSc1nnc(NC(=O)Cc2ccc(OC)c(OC)c2)s1 | -0.9 | 0.5 | 4.3 | 3.1% | 1.6 | 0.698 | -2.5
